# MT1-MMP act inh – blockers of MT1-MMP proenzyme processing, primary screen, HT1080 RFP-PRO-GFP cells, GFP/RFP fluorescence; 360,000 compounds, 0.061% hits; GFP/RFP ratio change, % at 20 µM; AID 651647, 2012; Matrix metalloproteinase-14 (Homo sapiens), P50281; GFP/RFP ratio fluorescence, overnight; percent of plate control window, DMSO zero;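 active = GFP/RFP ratio change of at least 30% with cell ATP level not reduced by more than half and red fluorescence within 50% of control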; note: strong numbers were not always called active
#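 Assay system: HT1080 cells carrying an RFP-PRO-GFP reporter | Dosing: Single dose of 20 µM compound, 1% DMSO final | Incubation: Cells overnight before dosing, compound overnight, 37 °C, 5% CO2 | Evaluation: GFP/RFP fluorescence ratio | Control set: DMSO and RFP-L50D-GFP cell wells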
# PABP polyA inh – PABP poly(A) RNA binding inhibitors, primary screen, biochemical, fluorescence polarization, uHTS. 290,000 compounds, 1% hits. AID 2014, 2009. Polyadenylate-binding protein 1 (Homo sapiens), P11940. inhibition, % at 35 µM;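 active = 50% or more with normal probe brightness, or confirmed in later tests; inconclusive = above 50% with abnormal brightness, or retests that disagree; inactive = below 50% or failed in later tests; about a fifth of its hits are not listed in these tables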;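 note: calls also rest on retests at 20 µM and on dose response follow-up; controls were probe without protein and protein plus probe with vehicle; some compounds called inactive have numbers as strong as hits; many hits fall short of the cut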
# Target sequence (P11940 whole entry, looked up): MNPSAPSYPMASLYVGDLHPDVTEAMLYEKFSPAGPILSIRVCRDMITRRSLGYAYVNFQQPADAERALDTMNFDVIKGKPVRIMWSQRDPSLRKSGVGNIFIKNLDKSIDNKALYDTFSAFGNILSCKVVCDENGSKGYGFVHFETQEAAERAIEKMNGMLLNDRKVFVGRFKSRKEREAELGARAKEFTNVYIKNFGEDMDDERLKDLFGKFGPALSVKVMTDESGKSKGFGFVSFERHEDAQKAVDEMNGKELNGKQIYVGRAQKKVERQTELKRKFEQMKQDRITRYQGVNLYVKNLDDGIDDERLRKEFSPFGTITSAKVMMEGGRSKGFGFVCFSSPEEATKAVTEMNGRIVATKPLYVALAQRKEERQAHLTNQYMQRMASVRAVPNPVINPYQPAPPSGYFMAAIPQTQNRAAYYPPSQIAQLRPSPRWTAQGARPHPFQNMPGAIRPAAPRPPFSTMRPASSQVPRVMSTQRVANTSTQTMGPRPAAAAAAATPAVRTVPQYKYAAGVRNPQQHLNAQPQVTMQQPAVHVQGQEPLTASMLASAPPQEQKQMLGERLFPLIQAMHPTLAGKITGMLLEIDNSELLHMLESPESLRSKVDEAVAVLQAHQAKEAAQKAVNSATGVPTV
# CSC inhib – cancer stem cell viability inhibitors, primary screen, luminescence; inhibition, % at 7.5 µM; AID 2717, 2010; cancer stem cell-like cells viability; 300,000 compounds, 1.1% hits;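 active = mean at 75% or more and at least half the replicates too; inconclusive = mean and replicates disagree; tested in HMLE shEcad cells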;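 note: 0% = median of negative and 100% = median of positive control wells; the first replicate is given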
# eIF4H inh – human eIF4H binding inhibitors, primary screen, translation initiation inhibitor project, biochemical, uHTS, fluorescence polarization; Eukaryotic translation initiation factor 4H (Homo sapiens), Q15056; eIF4H fluorescence polarization binding assay; inhibition, % at 35 µM; 290,000 compounds, 0.94% hits;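 active = 50% or more with normal probe brightness, or confirmed in later tests; inconclusive = above 50% with abnormal brightness, or retests that disagree; inactive = below 50% or failed in later tests; about a fifth of its hits are not listed in these tables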;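 note: calls also rest on retests at 20 µM and on dose response follow-up; 0% = protein and probe with vehicle and 100% = probe without protein; strong numbers were not always called active; many hits fall short of the cut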
# Rce1 inh – yeast Rce1p protease inhibitors, primary screen, biochemical, fluorescence, cell-free homogeneous | CAAX prenyl protease 2 (Saccharomyces cerevisiae (strain ATCC 204508 / S288c)), Q03530 | 290,000 compounds, 0.27% hits | calls only | yeast membranes, quenched prenylated peptide cleavage fluorescence;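 active = fall in fluorescence gain of 50% or more versus controls, with final raw signal at or below 3038400; inconclusive = same 50% fall but final raw signal above 3038400; inactive = fall in fluorescence gain under 50%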;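 note: plate controls were neutral control wells for no effect and wells lacking membranes for full effect; tested at 10 µM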
# HIV Env fusion – inhibitors of HIV-1 Env-driven cell-cell fusion, primary screen, HeLa-JRFL effector, CEM21 target cells, luciferase; inhibition, % at 12.3 µM; 360,000 compounds, 1.1% hits;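 active = mean replicate inhibition score of at least 50 and every replicate individually at or above 50; inconclusive = only one of the two criteria met; inactive = mean below 50 and not all replicates reaching 50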;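 note: 0% = plate neutral controls and 100% = maraviroc near 300 nM; one replicate is shown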
# Yeast UUG start – modulators of yeast start codon fidelity, primary screen, whole organism, S. cerevisiae, single point, plate reader. S. cerevisiae UUG-firefly luciferase reporter, luminescence/redox ratio. activity score, % at 18.7 µM. 350,000 compounds, 0.13% hits;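 active = replicate mean at a twofold rise or more, about +100% in these data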;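 note: firefly luciferase made from a UUG start codon reports start codon fidelity; reporter light over untreated wells divided by growth signal over untreated wells; some hits fall short of that in this replicate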
# MT1-MMP act inh RFP – recorded beside MT1-MMP act inh, whose call it bears; RFP signal change, %; measured here: RFP expression control read;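 0 = vehicle wells; hits needed this value within 50% of zero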
# An asterisk follows results filed as active; i = inactive; ? = inconclusive; . = not tested or not shown. An excerpt; the hit share may differ from the screen's.
SMILES,MT1-MMP act inh,MT1-MMP act inh RFP,PABP polyA inh,CSC inhib,eIF4H inh,Rce1 inh,HIV Env fusion,Yeast UUG start
C/C=C(/C)C(=O)Nc1cccc(C2=NOC3(C2)C[C@@H](C(N)=O)N(C(=O)[C@H]2CCC(=O)N2)C3)c1 (some centres undefined),-1,2,6,2,-3,i,2,-22
N#Cc1ccc(Oc2ccc(C(N)=O)cc2)cc1C#N,1,-2,-9,-8,4,i,-1,.
CCn1c(C)nc2cc(C(=O)NNS(=O)(=O)c3c(C)c(C)cc(C)c3C)ccc21,1,6,1,-10,-9,i,-20,-11
CCc1nc(N)nc2c1C(=O)CC(C)(C)C2,-1,-2,10,-4,3,i,.,2
O=C(c1cc2ccccc2oc1=O)N(Cc1ccc2c(c1)OCO2)Cc1ccco1,0,1,5,2,-8,i,-20,1
CC(=O)Nc1ccc2nc(NC(=O)CN3CCOCC3)sc2c1,2,-1,-2,-6,-10,i,9,-13
COc1ccc(CCNC(=O)CSc2ccccc2)cc1OC,-1,-6,-6,0,-4,i,16,.
CCCCCCOC(=O)C(C#N)c1nc2ccccc2nc1N1CCCCC1 (centres undefined),-15,-8,10,36,12,i,-7,-21
Cc1cc(C)nc(NC(=O)c2cc(-c3ccc(C)s3)nc3ccccc23)c1,-4,-6,-5,23,-3,i,4,-11
CCCCNc1nnc(SCC(=O)c2c[nH]c3ccccc23)s1,-3,-3,6,3,5,i,12,.
CC(C)(C)c1ccc(C(=O)N2CCC2(C)C(=O)Nc2cnc3ccccc3c2)cc1 (centres undefined),5,-10,.,.,.,.,2,-9
Cc1ccc(S(=O)(=O)Nc2ccc3cc([N+](=O)[O-])ccc3c2[N+](=O)[O-])cc1,14,-16,.,.,.,.,12,1
COCCCNC(=O)C1=CCN(S(=O)(=O)c2ccc(OC)cc2)CC1,1,4,-4,-7,-7,i,1,-26
O=C(Nc1nc2ccccc2[nH]1)C1CC1,-1,-4,-14,.,-5,i,-4,.
Cc1ccc(OCC(=O)Nc2cccc(S(=O)(=O)N3CCCC3)c2)cc1C,5,-4,.,.,.,.,-20,-10
CCOC(=O)[C@@H]1[C@H]2COc3ccccc3[C@@H]2N2C(=O)N(c3ccc(C(F)(F)F)cc3)C(=O)[C@@]12C,3,-1,.,-4,.,.,?,-14
CNC(=S)Nc1ccc(C)c(NC(=S)NC)c1,3,3,-3,1,28,i,-9,-10
CC1(C)SC2C(C(=O)O)N=C(Cc3ccccc3)N2C1C(=O)O (centres undefined),-4,0,.,.,.,.,0,-26
COc1ccc(COc2cc(-c3cccc(OC)c3)nc3ccc(NC(=O)c4ccc(OC)cc4)cc23)cc1,12,-8,5,62,-1,i,-9,3
CCCNS(=O)(=O)c1cccc(C(=O)OCc2cc(=O)oc3cc(OC)ccc23)c1,1,-11,-3,22,0,i,4,-15
O=C(CCN1C(=O)/C(=C/c2ccccc2)SC1=S)Nc1ccccn1,1,4,-11,17,-6,i,-82,-14
COc1ccc(S(=O)(=O)N2CCCCC2c2cc(C(=O)Nc3ccccc3Cl)no2)cc1 (centres undefined),-5,-11,.,.,.,.,26,-19
CC(=O)Nc1ccc(S(=O)(=O)NCc2ccc(C(=O)NCCCN3CCC(C)CC3)cc2)cc1,0,-4,.,-19,.,i,-3,-11
Cc1nc(Nc2ccccc2Br)c2nnn(Cc3ccccc3)c2n1,-1,0,8,-18,0,i,-11,-10
COc1cc(NC(=O)CSc2nncn2C)cc(OC)c1OC,0,1,-1,-5,6,i,1,.
CCN(CC)Cc1csc2ccc(Br)cc12,1,3,10,5,-9,i,.,-18
Cc1cc(C)cc(NC(=O)NCc2nnc(SCc3ccccc3)n2C)c1,3,-5,-4,17,-6,i,-10,-19
N#CC1=C(N)SC(N)=C(C#N)C1c1ccc([N+](=O)[O-])cc1,-12,4,2,-4,-9,i,-7,.
CC1CCC(NC(=O)c2ccc(-n3cncn3)c([N+](=O)[O-])c2)CC1 (centres undefined),1,0,.,-7,.,i,-46,.
COCCCN1C(=O)C(=O)/C(=C(/O)c2ccc(S(=O)(=O)N3CCOCC3)cc2)C1c1ccc(OC)cc1 (centres undefined),1,3,2,0,0,i,0,-12
COCC(C)n1c(SCC(=O)Nc2cccnc2Cl)nc2ccccc2c1=O (centres undefined),-4,0,.,.,.,.,10,-18
Oc1ccc(C[C@H]2CNC(=S)N2CCc2cc(C(F)(F)F)cc(C(F)(F)F)c2)cc1,0,0,-7,20,-7,i,3,-26
CC(=O)Nc1cccc(C(=O)Nc2nc(C)cs2)c1,-2,-2,3,-7,4,i,-9,-11
CCN1CCC(n2nccc2NC(=O)c2ccccc2Cl)CC1,-5,-4,1,-7,3,i,-1,-18
Cc1[nH][nH]c(=O)c1C(c1ccc(-c2ccc(Cl)c(C(=O)O)c2)o1)c1c(C)[nH][nH]c1=O,1,9,-2,.,10,.,3,.
CC[C@H](C)[C@@H](CO)NC(=O)[C@H]1O[C@@H](n2ccc(N)nc2=O)[C@H](O)[C@@H]1O,2,2,.,.,.,.,-7,-12

# Reformatted with bars between the fields: 2 of the compounds above.
compound | MT1-MMP act inh | MT1-MMP act inh RFP | PABP polyA inh | CSC inhib | eIF4H inh | Rce1 inh | HIV Env fusion | Yeast UUG start
COCCCN1C(=O)C(=O)/C(=C(/O)c2ccc(S(=O)(=O)N3CCOCC3)cc2)C1c1ccc(OC)cc1 (centres undefined) | 1 | 3 | 2 | 0 | 0 | i | 0 | -12
COCC(C)n1c(SCC(=O)Nc2cccnc2Cl)nc2ccccc2c1=O (centres undefined) | -4 | 0 | . | . | . | . | 10 | -18

# Other results:
SMILES,MT1-MMP act inh,MT1-MMP act inh RFP,PABP polyA inh,CSC inhib,eIF4H inh,Rce1 inh,HIV Env fusion,Yeast UUG start
O=C(Cn1nc(C(F)(F)F)c2c1CCCC2)NCCN1CCOCC1,-4,-4,5,-5,-1,i,-1,-18
O=C(NC1CCC(CC2CCC(NC(=O)C(Cl)Cl)CC2)CC1)C(Cl)Cl (centres undefined),3,5,-38,-12,-31,i,15,-3
CSc1ccc(Cn2c(C)c(C(=O)NCc3ccco3)sc2=O)cc1,1,-1,.,.,.,.,14,-10
COc1ccccc1CCNC(=O)c1c(C)nn(CC(C)C)c1Cl,3,-2,2,-17,-11,i,-3,-1
COc1cccc(-c2cc(C(=O)N/N=C/c3ccc(OC)c(COC(C)=O)c3)c3ccccc3n2)c1,3,2,?,17,?,i,.,-8
Cc1ccccc1C(=O)NC1CCN(C(=O)Nc2ccccc2Cl)CC1,-2,-2,-2,-9,-6,i,0,.
O=C(N/N=C/c1cc2c(cc1[N+](=O)[O-])OCO2)c1ccccn1,4,-4,.,4,.,i,.,-14
O=C(C[C@@H]1C/C=C\C[C@H](NC(=O)OCC2c3ccccc3-c3ccccc32)C(=O)OC[C@H]2CCCN2C1=O)N[C@H](CO)Cc1ccccc1,2,-7,.,3,.,.,-26,-12
Cc1cc(=O)n(C(NC(=O)c2ccccc2)C(=O)c2ccccc2)cn1 (centres undefined),4,5,-10,.,-9,.,.,-1
N#Cc1c(-c2ccccc2)nc(N2CCCCCC2)[nH]c1=O,3,-1,-10,-10,-2,i,.,7
CC(C)Cc1ccc(CN2CCCC(NC(=O)CSc3nncn3C)C2)cc1 (centres undefined),0,2,2,6,4,i,-8,-14
CC(NC(=O)C(=O)N/N=C/c1ccc(Cl)cc1)c1ccccc1 (centres undefined),2,1,-9,-13,4,i,-5,.
O=C(CSc1nnc2ccccn12)c1ccccc1,-4,6,-6,-6,4,i,-24,-22
CCOc1ccc2nc(N/C(N)=N/C(=S)Nc3cccc(OC)c3)nc(C)c2c1,-1,-9,-7,31,-10,i,-5,.
O=C(COC(=O)COc1ccccc1Cc1ccccc1)Nc1cccnc1Cl,2,5,-1,-11,1,i,-22,-18
Cc1ccc(C)c(NC(=S)c2nc3ccccc3s2)c1,11,11,6,8,0,i,-20,.
CCOC(=O)C1(C)CCN1C(=O)c1ccccc1C (centres undefined),-2,2,.,.,.,.,5,-8
CCC(C)c1ccccc1OCCCCN1CCCC1 (centres undefined),2,14,6,3,-1,i,-5,18
CC(C)NC(=O)c1csc(COCCO)n1,-1,6,.,.,.,.,-35,-22
COc1ccc(OC)c(/C=N/NC(=O)CNC(=O)c2ccc(S(=O)(=O)N3CCCC3)cc2)c1,-5,-6,12,21,-6,i,17,.
CCn1c(COc2ccc(C)cc2)nnc1SCc1nc2ccccc2[nH]1,-2,-10,-6,.,2,i,.,-7
CCOc1ccc(/C=N/N2C(C)CCCC2C)cc1 (centres undefined),0,-1,-8,7,-2,i,-13,-22
O=C(CNc1ccccc1)NN=C1CCCC1,2,4,-11,.,3,i,4,-15
Cc1ccc(NS(=O)(=O)c2cc(C(=O)N(C)C3CCN(C)CC3)ccc2Cl)cc1Cl,0,3,.,50,.,.,75*,-2
CCOc1ccc(S(=O)(=O)N(CC(=O)NCc2ccncc2)c2ccc(C)cc2)cc1,2,0,1,1,-17,i,4,-4
O=C(c1ccc(COc2c(F)c(F)c(F)c(F)c2F)o1)N1CCN(Cc2ccc3c(c2)OCO3)CC1,-3,-1,-7,27,5,i,30,7
Cc1nnc(SCC(=O)NC2CCCc3c2cnn3-c2ccc(F)cc2F)o1 (centres undefined),-2,0,-16,-4,6,.,6,-9
COCCNC(=O)C(c1ccc(C)o1)N(C(=O)Cn1nnc2ccccc21)c1ccccc1 (centres undefined),1,4,11,-15,-9,.,-11,5
Cc1cc(-c2ccccc2)nc2oc3c(c12)NC(=O)CN(c1ccccc1)C3=O,5,0,-7,.,0,i,0,-18
CN(Cc1ccccc1)C(=O)c1cccc(NC(=O)c2ccco2)c1,4,2,-6,0,-2,i,.,-4
COc1ccc2c(c1)c(C(C)=O)c(C)n2-c1ccc(C(C)=O)cc1,-13,-13,3,.,0,i,23,-26
CCCCCCC1(C)NC(=O)N(C(C)C(=O)Nc2ccc(N3CCOCC3)cc2)C1=O (centres undefined),0,3,.,-10,.,.,-11,-12
COc1ccc(C(=O)N2CCC(C(=O)Nc3ccc(OC)c(OC)c3)CC2)cc1,-1,-1,-5,.,-1,i,.,12
Cc1ccc(NC(=O)CSc2nnc(-c3ccncc3)n2N)cc1C,3,5,0,-3,-4,i,-63,-8
COC(=O)[C@@H](Cc1c[nH]c2ccccc12)NCc1ccc(B(O)O)cc1,2,6,.,.,.,.,11,-7
O=C1C=CC(=Nc2ccc3c(c2)C(=O)c2ccccc2-3)O1,1,3,.,.,.,.,-1,-8
CCCCn1c(N)c(N(CCC(C)C)C(=O)c2ccc3c(c2)OCCO3)c(=O)[nH]c1=O,-1,6,.,-11,.,i,-2,.
COc1ccc(Cn2nnnc2C(c2cc3cc(C)cc(C)c3[nH]c2=O)N2CCOCC2)cc1 (centres undefined),-1,3,4,.,-8,i,131*,-24
O=C(/C=C/c1ccncc1)c1ccc(NC(=O)c2ccccc2F)cc1,1,-5,4,80*,-17,.,.,.
COc1ccc(N(C)C(=O)C2CCCN2S(=O)(=O)c2cccc3nsnc23)c(OC)c1 (centres undefined),-5,2,2,-2,5,i,.,-2
O=C(N=Nc1c(O)n(Cc2ccccc2)c2ccccc12)c1cc2ccccc2cc1O,2,-10,-5,48,47,i,-13,-21
CCN(CC)CCN(Cc1cc2cc(C)ccc2[nH]c1=O)C(=S)NCc1ccco1,-1,-5,2,-8,19,i,-36,.
